Screening results from PubChem.
RanGTP-Impb inh: inhibitors of RanGTP-importin-beta interaction, primary screen, biochemical, FRET, CFP-Ran, YFP-importin-beta, homogeneous; 300,000 compounds, 1.1% hits; inhibition, % (no concentration beside the values); cell-free CFP-Ran/YFP-importin-beta FRET ratio; AID 2216;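 active = most replicates above 15%; inconclusive = exactly half above 15%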;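 note: 0% = DMSO wells and 100% = Ran loaded with GDP instead of GTP; wells of about 40 µL received 100 nL stock; the first replicate is given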
T cruzi repl: blocks replication of Trypanosoma cruzi. 300,000 compounds, 1.4% hits. T. cruzi beta-gal in NIH3T3, luminescence, 90 h. AID 1885. inhibition, % (no concentration beside the values);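 active = mean inhibition across valid replicates above about 55%, limit read from the data; inconclusive = mean below that limit but half or more replicates reach it; inactive = mean below it, under half of replicates reach it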;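 note: signal also drops with host cell toxicity which is not excluded here; 0% = plate median of DMSO wells and 100% = zero luminescence signal; higher percent means less beta-gal luminescence so fewer parasites; stock transfer was 50 nL into about 50 µL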
Beta cell apopt: beta cell apoptosis inhibition. INS-1E cytokine-induced death, ATP luminescence, 48 h; percent of positive-control rescue, neutral wells zero. protection from apoptosis, % (no concentration beside the values). 300,000 compounds, 0.8% hits. AID 435005;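 active = all replicates at 75% or more, or half of them and the mean; inconclusive = half reach 75% but not the mean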;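 note: 0% = cytokine-treated negative control wells and 100% = positive control rescue; higher means more ATP so stronger rescue from cytokine killing; wells of about 40 µL received 100 nL stock; the first replicate is given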
A1 inh: inhibitors of the anti-apoptotic protein A1, read as caspase activation; MEF A1-2A-BIM cells, Caspase-Glo 3/7 luminescence, 3 h; percent of clofoctol response, vehicle zero; 330,000 compounds, 0.066% hits; AID 2462; caspase activation, % (test concentration not listed);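 active = over half of replicate activation scores above 10%, or exactly half above 10 with the replicate mean above 10; inconclusive = replicate mean below 10 yet half the replicates above 10; inactive = over half of replicates below 10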;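 note: wells of about 30 µL received 50 nL stock; many hits fall short of the cut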
AF4-AF9 inh: blocks AF4 peptide binding to human AF9. P42568. AlphaScreen, biotin-AF4 peptide binding to FLAG-AF9. inhibition, % at 10 µM. 350,000 compounds, 0.47% hits. AID 651704;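 active = every replicate reaching a set inhibition limit, whatever the replicate mean, cut at about 25% in these data; inconclusive = mean inhibition reaches that limit but some replicates miss it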;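 note: 0% = plate neutral control median and 100% = total signal loss; the record names both 10 and 1 µM as test concentration; the first replicate is given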
Target sequence (P42568 whole entry, looked up): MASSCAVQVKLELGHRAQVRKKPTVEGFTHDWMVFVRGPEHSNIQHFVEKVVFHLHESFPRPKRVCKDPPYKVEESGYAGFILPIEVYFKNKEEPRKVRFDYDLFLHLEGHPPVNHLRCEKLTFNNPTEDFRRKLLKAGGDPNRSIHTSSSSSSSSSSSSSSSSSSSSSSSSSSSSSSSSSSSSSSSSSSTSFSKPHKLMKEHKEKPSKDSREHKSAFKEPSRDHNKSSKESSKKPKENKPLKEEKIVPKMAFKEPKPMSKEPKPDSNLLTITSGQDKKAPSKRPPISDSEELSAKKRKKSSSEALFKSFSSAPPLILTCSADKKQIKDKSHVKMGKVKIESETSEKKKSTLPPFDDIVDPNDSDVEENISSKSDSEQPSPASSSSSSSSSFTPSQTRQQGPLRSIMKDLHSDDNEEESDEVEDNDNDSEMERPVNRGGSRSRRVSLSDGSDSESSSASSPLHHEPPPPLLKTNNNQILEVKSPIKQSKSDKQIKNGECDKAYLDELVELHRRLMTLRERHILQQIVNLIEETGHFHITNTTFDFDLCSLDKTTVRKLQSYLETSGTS
Vif TR-FRET: inhibitors of Vif binding to APOBEC3G peptide, primary screen, biochemical, TR-FRET, GST-Vif 1-94, biotin-A3G peptide, dose response retest (AID 1117319) | TR-FRET GST-Vif / biotin-A3G peptide binding; higher % means a stronger effect; test concentration not given here; strong numbers were not always called active | one-dose inhibition, %; IC50 in µM for titrated hits | 260,000 compounds, 0.57% hits;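 active = above the screen mean plus three standard deviations and confirmed in dose response; inconclusive = results disagree or hit not tested in dose response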;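 note: Vif residues 1-94 fused to GST binding biotinylated APOBEC3G peptide 110-148; 0% = full assay without inhibitor and 100% = GST in place of GST-Vif; retest series ran down from 100 µM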
Ecoli rRNA inh: selective bacterial rRNA inhibition in E. coli; AID 720706; 350,000 compounds, 1.6% hits; GFP signal change (wild-type ribosome), % (test concentration not listed); E. coli WT GFP vs humanized-ribosome RFP mutants, fluorescence, 24 h; hits give low values; DMSO median 0, no signal -100;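 active = significant combined selectivity score with lowered wild-type GFP, culture density cut under 30%, mutant RFP and density less affected; inactive = any of these conditions unmet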; note: one replicate is shown; some compounds called inactive have numbers as strong as hits
Calb FLC: affects C. albicans growth with fluconazole; C. albicans CaCi-2 (fluconazole-resistant clinical isolate) + fluconazole, Alamar Blue growth, 48 h; growth inhibition, % (no concentration beside the values); 300,000 compounds, 0.57% hits; AID 1979;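 active = most replicates above 75%; inconclusive = exactly half above 75%; inactive = most below 75%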;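 note: all wells also contain fluconazole at 8 µg/ml as a sub-toxic cotreatment; 0% = median of DMSO wells and 100% = median of geldanamycin control wells; wells of about 8 µL received 7.5 nL stock; the first replicate is given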
Ecoli rRNA inh OD600: second read-out of Ecoli rRNA inh, no call of its own (marks repeat the call); OD600 change, %; measured here: OD600 growth;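 optical density of the mix in the first replicate; 0 = DMSO median and -100 = no signal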
Ecoli rRNA inh RFP: further read-out of Ecoli rRNA inh, marked with its call; RFP signal change, %; measured here: RFP humanized mutant strains;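 first replicate; 0 = DMSO median and -100 = no signal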
Active calls of the source: *; ? = inconclusive; · = not tested or not shown.

Sample of the layout:
SMILES | RanGTP-Impb inh | T cruzi repl | Beta cell apopt | A1 inh | AF4-AF9 inh | Vif TR-FRET | Ecoli rRNA inh | Ecoli rRNA inh OD600 | Ecoli rRNA inh RFP | Calb FLC
COc1ccc(CCNC(=O)c2c(-c3ccccc3)noc2C)cc1OC | -2.3 | 16 | -2 | 0.0 | 8.2 | 7% | -6 | -2 | -5.3 | 1
COc1cc(C(=O)N(Cc2ccco2)Cc2cc3ccccc3[nH]c2=O)cc(OC)c1OC | 2.4 | -2 | 4 | 0.0 | · | -1% | · | · | · | -14

The listing (from the top)
SMILES | RanGTP-Impb inh | T cruzi repl | Beta cell apopt | A1 inh | AF4-AF9 inh | Vif TR-FRET | Ecoli rRNA inh | Ecoli rRNA inh OD600 | Ecoli rRNA inh RFP | Calb FLC
COc1ccc(CCNC(=O)c2c(-c3ccccc3)noc2C)cc1OC | -2.3 | 16 | -2 | 0.0 | 8.2 | 7% | -6 | -2 | -5.3 | 1
COc1cc(C(=O)N(Cc2ccco2)Cc2cc3ccccc3[nH]c2=O)cc(OC)c1OC | 2.4 | -2 | 4 | 0.0 | · | -1% | · | · | · | -14
CC[C@H](C)[C@@H]1NC(=O)[C@H]([C@@H](C)CC)NC(=O)[C@@H](CC(C)C)NC(=O)[C@H](Cc2ccccc2)NC(=O)[C@H](Cc2ccccc2)NC(=O)[C@@H]2CCCN2C(=O)[C@@H]2CCCN2C(=O)[C@H](C(C)C)NC(=O)[C@H](CC(C)C)NC1=O | · | · | 5 | 0.2 | 13 | · | 0 | 0 | -2.6 | ·
O=S(=O)(c1ccc2ccccc2c1)N1CCCOC1 | -0.5 | -1 | -4 | -0.2 | · | 33% | · | · | · | -22
Cc1ccc(C)c(Cn2nnc3c(=O)[nH]c(C(=O)NCC4CCCO4)nc32)c1 (stereo unspecified) | 2.8 | 4 | 10 | 0.1 | · | 21% | · | · | · | 14
CCOc1ccc(Nc2ncnc3c2cnn3Cc2ccccc2)cc1 | 1.0 | -3 | 9 | 1.3 | 6.6 | -1% | -23 | -19 | 20 | 2
CCOc1ccc(CNc2ccc(S(N)(=O)=O)cc2)cc1 | -2.2 | -7 | -4 | 0.2 | 0.3 | · | -8 | -5 | -1.5 | 1
Cc1cc(OCC(=O)Nc2ccccc2N2CCCC2)ccc1C(C)C | · | 43 | 7 | 0.5 | 12 | 3% | 3 | -1 | 8.8 | -6
O=C(NC1=NCCS1)C1CCN(S(=O)(=O)c2cc([N+](=O)[O-])ccc2Cl)CC1 | · | · | 0 | 1.8 | 3.2 | 16% | · | · | · | ·
Cc1n[nH]c(=O)nc1Nc1ccc(O)cc1 | -3.5 | 3 | 4 | -0.1 | -14 | 10% | 29 | 15 | -7.7 | 18
CSc1ccccc1-c1nnc(NC(=O)Cc2ccccc2)o1 | 1.0 | -5 | 1 | -1.3 | 1.6 | · | 8 | 4 | 0.0 | 13
CCOC(=O)CC[C@H](NC(=O)Cn1cnc2c(OCc3ccccc3)ncnc21)C(=O)OCC | · | · | -3 | 0.0 | -0.8 | · | 1 | 0 | -3.5 | ·
Cc1cc(C)cc(-n2c(C)cc(/C=N/NC(=O)CSc3ncccn3)c2C)c1 | 2.7 | -9 | 4 | -0.2 | · | 18% | · | · | · | -4
Cc1cccc(N(C(=O)Cn2nnc3ccccc32)C(C(=O)NC(C)(C)C)c2ccsc2)c1 (stereo unspecified) | -2.3 | 7 | 2 | 0.7 | 3.7 | 2% | 2 | 8 | 2.1 | -17
COCCN(CCOC)c1ncnc2c1cnn2-c1ccccc1 | 5.3 | -1 | 0 | 0.2 | 0.9 | · | 5 | -2 | -0.6 | -9
S=c1[nH]nc(-c2c[nH]c3ccccc23)o1 | 4.2 | -4 | -1 | -0.7 | -3.9 | -1% | 2 | -1 | 2.3 | 9
N#Cc1nc(Cc2cccc3ccccc23)oc1NCC1CCCO1 (stereo unspecified) | 5.6 | 9 | 2 | -0.6 | · | -7% | · | · | · | -17
CN1CCN(c2ccccc2NC(=O)c2ccc3c(c2)OCCO3)CC1 | -2.6 | 7 | 6 | -0.7 | -1.1 | · | -4 | 0 | -1.7 | -4
Cc1c(S(=O)(=O)NC2CCCCC2)c(=O)n(C)c(=O)n1C | -0.7 | 2 | · | -0.3 | -23 | -5% | 9 | 9 | 0.8 | -7
O=C1CCC([N+](=O)[O-])C(c2ccc(-c3ccccc3)cc2)N1 (stereo unspecified) | -0.4 | 14 | -4 | -0.1 | 1.1 | · | 3 | 3 | -0.9 | 6
C/C(=N\NC(=O)c1ccc(Br)cc1)C1C(=O)c2ccccc2C1=O | 1.1 | 1 | 16 | -6.4 | 8.0 | ? | -45 | -42 | -13 | -23
O=C(Cn1ncnn1)OCc1ccccc1Cl | -3.0 | 2 | 1 | 0.9 | · | 7% | · | · | · | -7
CCCC[C@@H]1C=C(C(=O)O)[C@H](c2ccc(C)cc2)N1S(=O)(=O)c1ccc(C)cc1 | · | · | -8 | -0.9 | -0.1 | -7% | 0 | -6 | 9.5 | ·
Oc1oc(-c2ccccc2)nc1C=Nc1ccccc1 | -2.0 | 10 | -1 | -1.0 | · | 1% | · | · | · | -1
COc1cc(-c2noc(CCC(N)=O)n2)cc(OC)c1OC | -0.6 | -16 | · | · | · | -2% | · | · | · | 10
Cc1ccc(NCCC(=O)c2ccc(Cl)cc2)cc1C | 6.1 | 13 | -2 | -0.2 | · | 3% | · | · | · | 3
CCOC(=O)C1=C(N)OC2=C(C(=O)CC(C)(C)C2)C1c1cccs1 (stereo unspecified) | -1.2 | -13 | 2 | 0.0 | · | 3% | · | · | · | 2
CCC(=O)Nc1ccc(NC(=O)c2ccccn2)cn1 | -2.8 | -13 | 9 | -0.3 | · | -4% | · | · | · | -4
Cc1c(-c2ccc(F)cc2)nc(N)c(C#N)c1-c1cccnc1 | -0.9 | 1 | -1 | 0.5 | 0.1 | 12% | -11 | -20 | -2.5 | -2
COc1nc(Cl)cn(-c2ccc(C)cc2)c1=O | 4.8 | -7 | -3 | -0.8 | · | 12% | · | · | · | -1
COc1ccc2nc(C)cc(NCc3cccc(C(F)(F)F)c3)c2c1 | -1.9 | 42 | 50 | -1.5 | 5.1 | -9% | -63 | -81 | -20 | -3
C/C(=N\Nc1nc2c(s1)CCCC2)c1ccc(Cl)cc1 | 4.2 | 17 | 12 | 0.3 | · | ? | · | · | · | -1
CCN(CC)CCNC(=O)c1ccc(NC(=O)c2cn(-c3ccc(F)cc3)nc2-c2cccc(OC)c2)cc1 | 2.1 | 65* | 15 | 0.3 | -1.6 | · | -3 | -1 | 9.7 | 1
CCOC(=O)c1oc2ccccc2c1NC(=O)c1ccc2c(c1)OCO2 | 7.0 | 7 | 0 | -0.2 | · | -8% | · | · | · | 2
COc1ccc(CCNC(=O)Cn2cnc3sc(C)c(-c4ccc(F)cc4)c3c2=O)cc1OC | -0.4 | 23 | 3 | -0.4 | -1.4 | -1% | 10 | -2 | -0.5 | 32
COC(=O)c1ccc(CN2CCCC(C(=O)Nc3ccc(-c4ccn[nH]4)cc3)C2)cc1 (stereo unspecified) | 4.8 | 8 | · | -0.8 | 0.6 | 9% | -5 | -5 | -1.8 | -11
CCN(CC)CCCNC(=O)N[C@@H](Cc1ccccc1)C(=O)O | -2.9 | -4 | -4 | 0.5 | · | 15% | · | · | · | ·
CN(C(=O)COC(=O)c1cc2ccccc2oc1=O)C1CCCCC1 | · | · | -3 | -1.3 | 1.6 | · | -1 | -5 | 0.8 | ·
CCCC(=O)Nc1ccc(N2CCOCC2)cc1 | 2.7 | 0 | -10 | -0.1 | · | 22% | · | · | · | -2
O=C(c1ccco1)N1CCC(c2nc(-c3ccccc3Cl)no2)CC1 | 4.0 | -18 | -3 | -0.1 | · | 2% | · | · | · | 5
CCOc1ccc(S(=O)(=O)Nc2ccc(C(=O)NCC3CCCO3)cc2)cc1 (stereo unspecified) | 3.4 | -6 | -3 | 0.0 | 1.5 | 0% | -15 | -6 | 4.9 | -6
O=c1c2ccccc2nnn1Cc1ccc2ccccc2c1 | 4.1 | -6 | 3 | -0.1 | 2.2 | 10% | -5 | -6 | -2.3 | -13
CC(OC(=O)C1CCN(S(=O)(=O)c2ccc(Cl)cc2)CC1)C(=O)N1CCc2ccccc21 (stereo unspecified) | 0.0 | -8 | -2 | 0.0 | · | 5% | · | · | · | -2
NC(=O)c1cc(S(=O)(=O)N2CCN(c3cccc(Cl)c3)CC2)cs1 | 2.4 | -3 | -3 | -0.4 | 0.2 | · | 0 | 5 | 1.7 | -6
Cc1c([N+](=O)[O-])cc(C(=O)Nc2ccc(Cc3ccncc3)cc2)cc1[N+](=O)[O-] | -1.6 | 59* | -1 | 0.4 | -1.0 | -1% | -20 | -24 | -2.4 | -32
COc1ccc2c3c([nH]c2c1)C1CC2C(CC(O)C(OC)C2C(=O)O)CN1CC3 (stereo unspecified) | 28* | -13 | 2 | -0.4 | 0.2 | 27% | 3 | -2 | -4.8 | 3
CCCn1c(CN2CCN(C(=O)OCC)CC2)nc2cc(NC(=O)C(C)C)ccc21 | -0.6 | -6 | 8 | -0.1 | -1.7 | -12% | 2 | 3 | 4.3 | -12
O=C(CN1C(=O)CSC1=O)NC1CCCCC1 | 3.6 | -2 | -3 | -0.6 | · | 13% | · | · | · | -12
O=C(CSC(=S)N1CCCC1)c1ccccc1 | 3.5 | -19 | -2 | -0.7 | -0.8 | -7% | · | · | · | 1
CCCN(CCC)S(=O)(=O)c1ccc(C(=O)NCc2ccco2)cc1 | -3.5 | -9 | 3 | 1.6 | -9.9 | · | 2 | -2 | -0.9 | -4

Entries of single compounds, quoted from the list.
Entry for CC(OC(=O)C1CCN(S(=O)(=O)c2ccc(Cl)cc2)CC1)C(=O)N1CCc2ccccc21 (stereo unspecified) = RanGTP-Impb inh = 0.0; T cruzi repl = -8; Beta cell apopt = -2; A1 inh = 0.0; AF4-AF9 inh = ·; Vif TR-FRET = 5%; Ecoli rRNA inh = ·; Ecoli rRNA inh OD600 = ·; Ecoli rRNA inh RFP = ·; Calb FLC = -2
Entry for CCCN(CCC)S(=O)(=O)c1ccc(C(=O)NCc2ccco2)cc1 = RanGTP-Impb inh = -3.5; T cruzi repl = -9; Beta cell apopt = 3; A1 inh = 1.6; AF4-AF9 inh = -9.9; Vif TR-FRET = ·; Ecoli rRNA inh = 2; Ecoli rRNA inh OD600 = -2; Ecoli rRNA inh RFP = -0.9; Calb FLC = -4
Entry for O=c1c2ccccc2nnn1Cc1ccc2ccccc2c1 = RanGTP-Impb inh = 4.1; T cruzi repl = -6; Beta cell apopt = 3; A1 inh = -0.1; AF4-AF9 inh = 2.2; Vif TR-FRET = 10%; Ecoli rRNA inh = -5; Ecoli rRNA inh OD600 = -6; Ecoli rRNA inh RFP = -2.3; Calb FLC = -13

The list is partial, so the mix of outcomes need not match the whole.
